ID4 binder – binds human ID4 protein on microarray. calls only. P47928. small molecule microarray, Flag-ID4 binding, fluorescence F/B. hit rate 1.2% among 31,000;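 active = spot signal over background at p below 0.07 in all four prints; compounds were printed on slides so no solution concentration is given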;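 also: a binder raises fluorescence above local background on the spot; about 2 pmol printed per array spot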
Target sequence (P47928 whole entry, looked up): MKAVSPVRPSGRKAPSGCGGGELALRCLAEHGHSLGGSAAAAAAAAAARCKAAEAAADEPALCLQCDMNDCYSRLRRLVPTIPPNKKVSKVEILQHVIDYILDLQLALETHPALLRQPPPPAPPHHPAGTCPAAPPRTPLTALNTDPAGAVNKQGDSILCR
Calls only; i = inactive.

SMILES | ID4 binder
CC1(C)Cc2nc3sc4c(SCC(=O)Nc5ccc(Cl)cc5)ncnc4c3cc2CO1 | i
Cc1cc(NC(=O)CN(c2cccc(F)c2)S(C)(=O)=O)ccc1Br | i
Cc1ccc(C)c(NC(=O)CN(c2ccc(Oc3ccccc3)cc2)S(C)(=O)=O)c1 | i
CC(C)(C)c1cc(NC(=O)CSc2nnnn2-c2ccccc2)cc(C(C)(C)C)c1 | i
CCCN(C)C[C@@H]1Oc2ncc(C#CCC(C)C)cc2C(=O)N([C@@H](C)CO)C[C@H]1C | i
CSc1nn(-c2ccccc2)cc1-c1nc(-c2ccccc2)cs1 | i
CCn1c(SCC(=O)Nc2cccc(OC)c2)nnc1-c1cccc(C)c1 | i
COc1ccc(NC(=O)N(C)C[C@H]2Oc3cc(-c4cccc(C(=O)N(C)C)c4)ccc3S(=O)(=O)N([C@@H](C)CO)C[C@@H]2C)cc1 | i
CCCN(C)C[C@@H]1Oc2cc(-c3ccc(C)cc3)ccc2S(=O)(=O)N([C@@H](C)CO)C[C@H]1C | i
COc1cc2c(cc1NC(=O)CCCN1C(=O)CCC1=O)oc1ccccc12 | i
CS(=O)(=O)Nc1ccc2c(c1)[C@H]1C[C@H](CC(=O)NCc3ccccn3)O[C@H](CO)[C@H]1O2 | i
C[C@H](CO)N1C[C@H](C)[C@@H](CN(C)CC2CCCC2)Oc2cc(Br)ccc2S1(=O)=O | i

In the list so far, these have two or more sulfur atoms:
SMILES | ID4 binder
CC1(C)Cc2nc3sc4c(SCC(=O)Nc5ccc(Cl)cc5)ncnc4c3cc2CO1 | i
CSc1nn(-c2ccccc2)cc1-c1nc(-c2ccccc2)cs1 | i

Pulled by structure from above, four records:
SMILES | ID4 binder
C[C@H](CO)N1C[C@H](C)[C@@H](CN(C)CC2CCCC2)Oc2cc(Br)ccc2S1(=O)=O | i
CS(=O)(=O)Nc1ccc2c(c1)[C@H]1C[C@H](CC(=O)NCc3ccccn3)O[C@H](CO)[C@H]1O2 | i
Cc1ccc(C)c(NC(=O)CN(c2ccc(Oc3ccccc3)cc2)S(C)(=O)=O)c1 | i
CSc1nn(-c2ccccc2)cc1-c1nc(-c2ccccc2)cs1 | i

More compounds follow.
SMILES | ID4 binder
Cc1cc(Cl)ccc1NC(=O)Cn1cnc2sc(C)c(-c3ccc(F)cc3)c2c1=O | i
Cc1nc(SCC(=O)c2cc3ccccc3oc2=O)c(C(N)=O)c(C)c1C | i
COc1ccc(C#Cc2cnc3c(c2)C(=O)N([C@H](C)CO)C[C@H](C)[C@@H](CN(C)CC2CCOCC2)O3)cc1 | i
O=C(C[C@H]1C=C[C@H](NC(=O)C2CCC2)[C@@H](CO)O1)NCc1ccccc1Cl | i
C=CCSc1n[nH]c(=O)n1-c1cccc(Cl)c1 | i
Cc1c(Cl)cccc1NC(=O)CN(c1cccc(F)c1)S(C)(=O)=O | i
Cc1cccc(NC(c2ccccc2C)c2ccc3ccc(C)nc3c2O)n1 (centres undefined) | i
COc1cccc(N(CC(=O)Nc2cc(C(F)(F)F)ccc2Cl)S(C)(=O)=O)c1 | i
CC(=O)N(C)C[C@@H]1Oc2ncc(/C=C/c3ccccc3)cc2C(=O)N([C@@H](C)CO)C[C@@H]1C | i
CC(=O)N(C)C[C@H]1Oc2ncc(-c3ccc(C)cc3)cc2C(=O)N([C@@H](C)CO)C[C@@H]1C | i
CCCN(C)C[C@H]1Oc2ncc(-c3cccc(C(=O)N(C)C)c3)cc2C(=O)N([C@H](C)CO)C[C@@H]1C | i
COc1cc(C2c3c(cc(OC)c(O)c3OC)CC(CO)C2COC2OCC(O)C(O)C2O)cc(OC)c1O (centres undefined) | i
Cc1ccc(-c2ccc3c(c2)O[C@H](CN(C)C)[C@H](C)CN([C@@H](C)CO)S3(=O)=O)cc1 | i
CNC[C@H]1Oc2cc(C#CC3CCCC3)ccc2S(=O)(=O)N([C@@H](C)CO)C[C@H]1C | i
COc1cccc(-c2ccc3c(c2)O[C@@H](CN(C)C(=O)c2ccccc2F)[C@H](C)CN([C@H](C)CO)S3(=O)=O)c1 | i
CCCN(C)C[C@@H]1Oc2cc(-c3ccccc3)ccc2S(=O)(=O)N([C@@H](C)CO)C[C@@H]1C | i
CCCC#Cc1cnc2c(c1)C(=O)N([C@H](C)CO)C[C@@H](C)[C@H](CN(C)C(=O)c1ccc(F)cc1)O2 | i
CC(C)(C)OC(=O)N1CCC(c2cc(=O)n3[nH]cc(C(=O)Nc4ccc(F)c(Cl)c4)c3n2)CC1 | i
C[C@@H]1CN([C@@H](C)CO)C(=O)c2cccc(N(C)C)c2O[C@@H]1CN(C)C(=O)Nc1ccccc1 | i
O=C(Nc1cccc(C(F)(F)F)c1)/C(=C\c1cccs1)c1ccsc1 | i
CCCN(C)C[C@H]1Oc2cc(-c3ccccc3OC)ccc2S(=O)(=O)N([C@H](C)CO)C[C@H]1C | i
CCCN(C)C[C@@H]1Oc2cc(-c3ccccc3F)ccc2S(=O)(=O)N([C@@H](C)CO)C[C@@H]1C | i
C=CCOC(=O)C1=C[C@@H](c2ccc3c(c2)OCO3)C[C@@H](OCc2ccc(CO)cc2)O1 | i
CCOC(=O)c1c(CS(=O)c2ccc(Cl)cc2)oc2c(F)c(F)c(F)c(F)c12 (centres undefined) | i
O=C(CSC1CC(=O)N(c2ccccc2)C1=O)Nc1cccc(Br)c1 (centres undefined) | i
C[C@@H]1CN([C@@H](C)CO)C(=O)c2cc(-c3ccccc3)cnc2O[C@@H]1CN(C)C(=O)C1CCCCC1 | i
O=C(CSc1nnc(-c2ccccc2)o1)Nc1cccc(Br)c1 | i
COc1ccc(C(=O)N(Cc2nc(-c3ccccc3)no2)C(C)C)cc1[N+](=O)[O-] | i
C[C@H](CO)N1C[C@H](C)[C@H](CN(C)C(=O)CN(C)C)Oc2ncc(C3=CCCC3)cc2C1=O | i
CCOc1cc(S(=O)(=O)NCc2ccccn2)ccc1Cl | i
Cc1cccc(OCC(=O)Nc2ccc(Cl)c(-c3nc4ccccc4s3)c2)c1 | i
O=C(N[C@H]1C=C[C@@H](CC(=O)N2CCOCC2)O[C@H]1CO)c1cccc(F)c1 | i
Cc1cc2nn(-c3ccc(C(C)C)cc3)nc2cc1NC(=O)COc1ccccc1[N+](=O)[O-] | i
O=C(CSc1ncccn1)Nc1cc(Cl)cc(Cl)c1 | i
C[C@@H]1CN([C@H](C)CO)C(=O)c2cc(-c3ccc(C#N)cc3)cnc2O[C@@H]1CN(C)CC1CCCC1 | i
Cc1ccc(NC(=O)COc2ccc3c(=O)c(-c4ccccc4Cl)coc3c2)cc1 | i
Cc1cc(OCCCC(=O)Nc2sc3c(c2C#N)CCCC3)cc(C)c1Cl | i
C[C@H](CO)N1C[C@H](C)[C@H](CN(C)S(=O)(=O)c2cn(C)cn2)Oc2cc(C3=CCCCC3)ccc2S1(=O)=O | i
COc1ccccc1NC(=O)CSC1=NC(c2ccccc2)CC(=O)N1 (centres undefined) | i
Cc1ccc(S(=O)(=O)CCC(=O)Nc2ccc(Cl)cc2)cc1 | i
c1ccc(-n2nnnc2CSc2nnnn2-c2ccccc2)cc1 | i
O=C(CSc1nc2ncccc2[nH]1)Nc1ccccc1Cl | i
C[C@@H]1CN([C@H](C)CO)C(=O)c2c(c3ccccc3n2C)-c2ccccc2CO[C@@H]1CN(C)C(=O)[C@@H](Cc1ccccc1)N(C)C | i
COc1ccc(S(=O)(=O)N(C)CC(=O)Nc2ccccc2OC)cc1C | i
C[C@H](CO)N1C[C@H](C)[C@@H](CN(C)C(=O)C2CC2)Oc2ncc(C#Cc3ccccc3F)cc2C1=O | i
COCC#Cc1ccc2c(c1)O[C@H](CN(C)C(=O)Nc1ccccc1F)[C@H](C)CN([C@H](C)CO)S2(=O)=O | i
CCN(CC(=O)Nc1ccccc1)S(=O)(=O)c1ccc(Cl)cc1 | i
C[C@@H]1CN([C@H](C)CO)S(=O)(=O)c2ccc(-c3ccc(C(=O)N(C)C)cc3)cc2O[C@H]1CN(C)C(=O)C1CCCCC1 | i
CCN1CCN(c2oc(COc3ccccc3C)nc2C#N)CC1 | i
C[C@@H]1CN([C@@H](C)CO)S(=O)(=O)c2ccc(C3=CCCCC3)cc2O[C@H]1CN(C)Cc1ccccc1 | i
O=C(NCc1cccnc1)C1CC(=O)N(c2ccc(Cl)cc2)C1 (centres undefined) | i
CCC(=O)N(C)C[C@@H]1Oc2ncc(-c3ccccc3C)cc2C(=O)N([C@@H](C)CO)C[C@@H]1C | i
N#C[C@H]1[C@@H](c2ccc(C#Cc3ccccc3F)cc2)[C@@H](CO)N1C(=O)C1CCOCC1 | i
Cc1ccc(-c2csc3nnc(SCC(=O)Nc4nsc(-c5ccccc5)n4)n23)cc1 | i
COC(=O)c1cc(OC)c(OC)cc1NC(=O)COc1ccc(C(C)(C)C)cc1Br | i
O=c1cc(-c2ccc3ccccc3c2)[nH][nH]1 | i
COc1ccc(S(=O)(=O)N(C)CC(=O)NC2CCCC2)cc1Cl | i
CCc1cc(C(=O)OC)c(NC(=O)CC2Nc3cccc4cccc(c34)NC2=O)s1 (centres undefined) | i
C[C@@H]1CN([C@H](C)CO)C(=O)c2cc(-c3cccc(F)c3)cnc2O[C@@H]1CN(C)Cc1cccc(F)c1 | i
O=C(NCC[C@H]1CC[C@@H](NC(=O)C2CCC2)[C@@H](CO)O1)c1ccc(F)cc1 | i

Another view of part of the listing above:
COC(=O)c1cc(OC)c(OC)cc1NC(=O)COc1ccc(C(C)(C)C)cc1Br
  ID4 binder: i

N#C[C@H]1[C@@H](c2ccc(C#Cc3ccccc3F)cc2)[C@@H](CO)N1C(=O)C1CCOCC1
  ID4 binder: i

O=c1cc(-c2ccc3ccccc3c2)[nH][nH]1
  ID4 binder: i

Cc1ccc(-c2csc3nnc(SCC(=O)Nc4nsc(-c5ccccc5)n4)n23)cc1
  ID4 binder: i

Going on with the list.
SMILES | ID4 binder
CC(C)CC#Cc1cnc2c(c1)C(=O)N([C@@H](C)CO)C[C@@H](C)[C@@H](CN(C)C(=O)c1ccc(F)cc1)O2 | i
C[C@@H](NC(=O)C[C@H]1C=C[C@H](NC(=O)C2CCC2)[C@@H](CO)O1)c1ccccc1 | i
Cc1ccc(CN(C)C[C@H]2OCc3cn(nn3)CCCC(=O)N([C@@H](C)CO)C[C@@H]2C)cc1 | i
COc1ccc(C(Nc2ccccn2)c2cc(Cl)c3cccnc3c2O)cc1[N+](=O)[O-] (centres undefined) | i
Cc1sc2ncn(CC(=O)Nc3ccc(F)cc3)c(=O)c2c1C | i
Cc1ccc(S(=O)(=O)N2CCCC2C(=O)NCc2ccco2)cc1 (centres undefined) | i
C[C@@H]1CN([C@@H](C)CO)C(=O)c2cc(-c3ccc(C#N)cc3)cnc2O[C@H]1CN(C)C(=O)c1cccnc1 | i
COc1ccccc1C#Cc1cnc2c(c1)C(=O)N([C@@H](C)CO)C[C@H](C)[C@H](CN(C)C)O2 | i
C[C@@H]1CN([C@@H](C)CO)S(=O)(=O)c2ccc(C#CCN(C)C)cc2O[C@H]1CN(C)S(C)(=O)=O | i
CN1CCN(C(=O)CN(c2cccc(Cl)c2)S(=O)(=O)c2ccc(Cl)cc2)CC1 | i
C[C@@H]1CN([C@@H](C)CO)C(=O)c2cc(C#Cc3ccc(F)cc3)cnc2O[C@H]1CN(C)CC1CCOCC1 | i
C[C@@H]1CN([C@H](C)CO)C(=O)c2cc(C#Cc3ccccn3)cnc2O[C@@H]1CN(C)CC1CCOCC1 | i
Cc1cccc(-c2nnc(SCC(=O)Nc3ccc(Br)cc3F)o2)c1 | i
COc1ccc(NC(=O)Nc2ccc3c(c2)[C@H]2C[C@@H](CC(=O)N4CCN(C)CC4)O[C@H](CO)[C@H]2O3)cc1 | i
CC(=O)N[C@H]1C=C[C@H](CC(=O)NCC2CCCCC2)O[C@@H]1CO | i
Cc1cc(-c2ccccc2)nc(SCC(=O)Nc2ccc(I)cc2)n1 | i
C[C@@H]1CN([C@@H](C)CO)C(=O)c2cc(-c3cccc(C(=O)N(C)C)c3)cnc2O[C@@H]1CN(C)C(=O)Cc1ccccn1 | i
COc1ccc(-n2c(SCC(=O)c3ccccc3)nnc2-c2ccncc2)cc1 | i
COc1ccc(S(=O)(=O)N(C)CC(=O)Nc2c(F)cccc2F)cc1 | i
Cc1cc([N+](=O)[O-])ccc1NC(=O)CSc1nnnn1-c1ccccc1 | i
COc1ccc(S(=O)(=O)N(C)CC(=O)NC2CCCCC2)cc1C | i
O=C(NCc1ccccn1)C1CCCN(S(=O)(=O)c2ccccc2)C1 (centres undefined) | i
CC1OC(OC2C(O)C(CO)OC(O[C@H]3CC[C@@]4(C)C(CC[C@]5(C)C4CC=C4C6CC(C)(C)CC[C@]6(C(=O)OC6OCC(OC7OCC(O)C(O)C7O)C(O)C6O)CC[C@]45C)C3(C)C)C2O)C(O)C(OC2OCC(O)(CO)C2O)C1O (some centres undefined) | i
COc1ccccc1-c1cnc2c(c1)C(=O)N([C@@H](C)CO)C[C@@H](C)[C@H](CN(C)Cc1ccncc1)O2 | i
O=C(Nc1ccccc1[N+](=O)[O-])C1Cc2ccccc2CN1S(=O)(=O)c1ccc(F)cc1 (centres undefined) | i
CCn1c(SCC(=O)Nc2ccc(Br)cc2Cl)nnc1-c1cccc([N+](=O)[O-])c1 | i
COc1cc(Cc2nccc3cc(OC)c(OC)cc23)c(NC(=O)c2cccc(Br)c2)cc1OC | i
Nc1ncnc2c1ncn2CCNCCc1ccccc1 | i
C[C@H]1CN([C@@H](C)CO)C(=O)c2cc(C3=CCCC3)cnc2O[C@H]1CN(C)C | i
CC(C)CC#Cc1cnc2c(c1)C(=O)N([C@@H](C)CO)C[C@@H](C)[C@@H](CN(C)C(=O)c1ccccc1F)O2 | i
Cc1ccc(F)cc1N1C(=O)COCC1=O | i
O=C(CSc1ncn[nH]1)NCc1ccccc1 | i
O=C(C[C@@H]1C=C[C@@H](NC(=O)Cc2cccnc2)[C@@H](CO)O1)Nc1ccccc1 | i

From PubChem

This is a subset; the hit share may differ from the screen's.
